Screens deposited in PubChem BioAssay by The Scripps Research Institute Molecular Screening Center.
CHO parental Ca: ATP-evoked calcium signal inhibitors, parental CHO, primary screen, counter-screen for OX1R antagonist project, cell-based, fluorescence, Fluo-8 calcium dye | parental CHO-K1, ATP-induced calcium, Fluo-8 fluorescence | inhibition, % at 5.6 µM | hit rate 0.63% among 330,000 | AID 463079, 2010;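 active = inhibition above that plate's mean sample inhibition plus 3 SD, cut at about 26% in these data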;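 note: 0% = ATP-challenged DMSO wells and 100% = DMSO wells without ATP; some compounds past the cut are filed as inactive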
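Test system: parental CHO cells; detection: calcium-sensitive Fluo-8 fluorescence; evaluation: percent inhibition of calcium signal; also added: ATP as calcium-mobilizing challenge; repeats: one well per compound; control set: ATP-challenged DMSO wells low, unchallenged DMSO wells high; compound: single nominal dose of 5.6 µM per compound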
CHRM4 antagonist: human M4 muscarinic receptor antagonists, primary screen, CHO cells, Fluo-8 calcium fluorescence | Muscarinic acetylcholine receptor M4 (Homo sapiens), P08173 | inhibition, % at 3 µM | hit rate 0.73% among 360,000 | CHO-hM4 cells, ACh EC80;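 active = inhibition above its plate's cutoff, the mean inhibition of sample wells plus 3 SD, cut at about 27% in these data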;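 note: 0% = acetylcholine EC80 with DMSO and 100% = DMSO without agonist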
OXTR potentiator: human OXTR potentiators, primary screen, fluorescence, CHO-OTR cells, Fluo-8 calcium. Oxytocin receptor (Homo sapiens), P30559. Fluo-8 calcium fluorescence, potentiator mode; 0% = oxytocin EC15, 100% = EC100. activation, % at 3 µM. hit rate 0.061% among 320,000. AID 2445, 2010;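 active = activation above that plate's cutoff, the mean activation of tested compounds plus 3 SD, cut at about 6.6% in these data, passing the limit was not always enough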;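 note: 100% uses oxytocin at 75 nM as the full agonist control; some results filed as inactive read as strong as hits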
Target sequence (P30559 whole entry, looked up): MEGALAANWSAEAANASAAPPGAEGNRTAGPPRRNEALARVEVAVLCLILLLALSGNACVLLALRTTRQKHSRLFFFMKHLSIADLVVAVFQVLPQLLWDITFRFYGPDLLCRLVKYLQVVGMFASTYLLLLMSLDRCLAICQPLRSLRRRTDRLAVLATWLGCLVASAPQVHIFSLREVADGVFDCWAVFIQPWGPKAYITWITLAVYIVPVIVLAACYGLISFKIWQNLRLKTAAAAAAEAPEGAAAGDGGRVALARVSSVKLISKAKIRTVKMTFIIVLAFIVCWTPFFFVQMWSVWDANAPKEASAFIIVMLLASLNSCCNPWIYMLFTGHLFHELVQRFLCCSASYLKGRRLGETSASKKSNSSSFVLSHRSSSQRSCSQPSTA
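Material: CHO-OTR cells, human receptor; compound dosing: single dose, 3.0 µM nominal final compound concentration; schedule: 6 min compound pre-incubation at room temperature, 100 s kinetic read; measured by: kinetic Fluo-8 calcium fluorescence; read-out basis: % activation vs EC15 and EC100 oxytocin; controls: EC15 oxytocin alone as 0%, 75 nM oxytocin as 100%; replicates: singlicate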
Numbers without * were called inactive; / = no result given; & = joins results of further samples. This is a subset; rates above refer to the full screens.

The line under a structure holds: CHO parental Ca | CHRM4 antagonist | OXTR potentiator
O=[N+]([O-])c1cc([As](=O)(O)O)ccc1O
→ -8.8 | -17.8 | -0.8
O=C(O)C(Cl)(Cl)Cl
→ -7.3 | 2.0 | -7.2
C[C@]12CCC(=O)C[C@H]1CC[C@@H]1[C@@H]2CC[C@]2(C)[C@@H](O)CC[C@@H]12
→ 7.6 | / | -4.6
C[C@@H]1O[C@@H](O[C@@H]2C=C3CCC4C(CC[C@]5(C)[C@@H](c6ccc(=O)oc6)CC[C@]45O)[C@@]3(C)CC2)[C@H](O)[C@H](O)[C@H]1O (some centres undefined)
→ -7.1 | -0.1 | 1.4
CN(C)[C@@H]1C(=O)C(C(N)=O)=C(O)[C@@]2(O)C(=O)C3=C(O)c4c(O)ccc(Cl)c4[C@@](C)(O)[C@H]3C[C@@H]12
→ -5.9 | -13.3 | -3.4
C=C1[C@H]2CC[C@H]3[C@]4(C)C[C@H](O[C@H]5O[C@H](CO)[C@@H](OS(=O)(=O)O)[C@H](OS(=O)(=O)O)[C@H]5OC(=O)CC(C)C)C[C@@H](C(=O)O)[C@H]4CC[C@]3(C2)[C@H]1O
→ -1.7 | 6.9 | -7.8
C[C@]12CC[C@H]3[C@@H](CCC4=CC(=O)CC[C@@]43C)[C@@H]1CC[C@@H]2O
→ -4.3 | 0.4&-9.2 | 0.9
CCC1C2CC3C4N(C)c5ccccc5C45CC(C2C5O)N3[C@@H]1O (some centres undefined)
→ -0.3 | 3.8 | -8.9
CN1CCC23c4c5ccc(O)c4O[C@@H]2[C@H](O)C=CC3C1C5 (some centres undefined)
→ -1.6 | -3.5 | 2.3
CN=C1CN(O)C(c2ccccc2)=c2cc(Cl)ccc2=N1
→ 3.8 | -1.9 | -7.3
c1ccc(Cn2ccnc2)cc1
→ -1.1 | 4.2 | -7.3
c1ccc2c(c1)Sc1ccccc1N2CC1CN2CCC1CC2 (centres undefined)
→ -3.0 | 98.1* | -7.9
CC(C)[C@@]1(NC(=O)[C@@H]2C[C@@H]3c4cccc5[nH]cc(c45)C[C@H]3N(C)C2)O[C@@]2(O)[C@@H]3CCCN3C(=O)[C@H](Cc3ccccc3)N2C1=O
→ -21.5 | -4.4 | -8.4
C=C(C)[C@@H]1C2C(=O)O[C@H]1[C@H]1OC(=O)[C@@]34OC3C[C@]2(O)[C@@]14C (some centres undefined)
→ -2.8 | 1.6 | -7.4
C[C@]12CCC(=O)C[C@@H]1CC[C@@H]1[C@@H]2CC[C@]2(C)[C@@H](O)CC[C@@H]12
→ -13.8 | -11.5 | -6.0
C#CCN(C)[C@H](C)Cc1ccccc1
→ -0.2 | -6.6 | -9.3
COc1ccc(C[C@H]2NC[C@H](O)[C@H]2OC(C)=O)cc1
→ -12.5 | -8.3 | 0.0
CCN1C[C@@]2(COC)C3[C@@H](OC)[C@H]4[C@@H]1[C@@]3(C1C[C@@]3(O)[C@H](OC(=O)c5ccccc5)C1[C@]4(OC(C)=O)[C@@H](O)[C@H]3OC)[C@@H](OC)C[C@H]2O (some centres undefined)
→ 2.7 | -6.4 | -0.4
CC(NC(C)(C)C)C(=O)c1cccc(Cl)c1 (centres undefined)
→ 2.5&1.2 | 0.9 | -4.2&-5.9

For reference, part of the list above.
The line under a structure holds: CHO parental Ca | CHRM4 antagonist | OXTR potentiator
CN=C1CN(O)C(c2ccccc2)=c2cc(Cl)ccc2=N1
→ 3.8 | -1.9 | -7.3
c1ccc(Cn2ccnc2)cc1
→ -1.1 | 4.2 | -7.3
c1ccc2c(c1)Sc1ccccc1N2CC1CN2CCC1CC2 (centres undefined)
→ -3.0 | 98.1* | -7.9
CC(C)[C@@]1(NC(=O)[C@@H]2C[C@@H]3c4cccc5[nH]cc(c45)C[C@H]3N(C)C2)O[C@@]2(O)[C@@H]3CCCN3C(=O)[C@H](Cc3ccccc3)N2C1=O
→ -21.5 | -4.4 | -8.4
C=C(C)[C@@H]1C2C(=O)O[C@H]1[C@H]1OC(=O)[C@@]34OC3C[C@]2(O)[C@@]14C (some centres undefined)
→ -2.8 | 1.6 | -7.4
C[C@]12CCC(=O)C[C@@H]1CC[C@@H]1[C@@H]2CC[C@]2(C)[C@@H](O)CC[C@@H]12
→ -13.8 | -11.5 | -6.0
C#CCN(C)[C@H](C)Cc1ccccc1
→ -0.2 | -6.6 | -9.3
COc1ccc(C[C@H]2NC[C@H](O)[C@H]2OC(C)=O)cc1
→ -12.5 | -8.3 | 0.0
CCN1C[C@@]2(COC)C3[C@@H](OC)[C@H]4[C@@H]1[C@@]3(C1C[C@@]3(O)[C@H](OC(=O)c5ccccc5)C1[C@]4(OC(C)=O)[C@@H](O)[C@H]3OC)[C@@H](OC)C[C@H]2O (some centres undefined)
→ 2.7 | -6.4 | -0.4
CC(NC(C)(C)C)C(=O)c1cccc(Cl)c1 (centres undefined)
→ 2.5&1.2 | 0.9 | -4.2&-5.9
